HSV replic up – enhancers of HSV replication in host cells, fold increase, host cell viability; HSV replication augmentation in cells; maximum fold increase; 0.005% of 220,000 active;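 active = peak rise of 1.5-fold or more in the series; inconclusive = self-fluorescent or not available for retest; tested in PC3 cells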;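 also: first round at 10 µM; read as green reporter fluorescence; hits show the peak of a series up to 25 µM; 1 = signal of infected wells without compound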
GALR2 agonist – GALR2 receptor agonists, primary screen, cell-based; 0.48% of 140,000 active; AID 803, 2007; GALR2-expressing cells, agonist activation read-out; activation, %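 (tested at 5 µM)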; Galanin receptor type 2 (Homo sapiens), O43603;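 active = above mean plus 3 SD of all compounds, about 5% in these data, not always enough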;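 also: 0% = vehicle buffer wells and 100% = reference agonist at full effect; tested in CHO reporter cells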
Target sequence (O43603 whole entry, looked up): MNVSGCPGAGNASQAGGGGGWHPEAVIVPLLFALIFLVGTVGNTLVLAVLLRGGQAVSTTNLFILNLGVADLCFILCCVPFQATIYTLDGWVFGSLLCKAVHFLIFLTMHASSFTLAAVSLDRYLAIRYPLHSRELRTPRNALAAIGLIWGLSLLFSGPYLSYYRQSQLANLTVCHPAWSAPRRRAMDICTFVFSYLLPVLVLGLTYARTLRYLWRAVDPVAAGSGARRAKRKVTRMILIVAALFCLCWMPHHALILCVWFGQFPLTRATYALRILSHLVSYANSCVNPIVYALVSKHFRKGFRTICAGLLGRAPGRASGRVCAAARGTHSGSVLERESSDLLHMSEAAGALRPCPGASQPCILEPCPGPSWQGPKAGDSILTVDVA
RGS16-Gao HTS – modulators of RGS16 binding to Galphao, primary screen, biochemical, human proteins, multiplexed bead flow cytometry | 0.38% of 220,000 active | binding response (% of control), % at 10 µM | Regulator of G-protein signaling 16 (Homo sapiens) + Guanine nucleotide-binding protein … | bead-based flow cytometry RGS16-Galphao binding, fluorescence; actives lie on both sides | AID 1441, 2008;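 active = below 25% or above 175%, edge rows of some plates excepted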;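 also: Galphao activated by GDP with aluminum fluoride before binding; 100% = wells without compound and 0% = beads without RGS; some results beyond the cut were filed as inactive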
Target sequence (O15492 whole entry, looked up): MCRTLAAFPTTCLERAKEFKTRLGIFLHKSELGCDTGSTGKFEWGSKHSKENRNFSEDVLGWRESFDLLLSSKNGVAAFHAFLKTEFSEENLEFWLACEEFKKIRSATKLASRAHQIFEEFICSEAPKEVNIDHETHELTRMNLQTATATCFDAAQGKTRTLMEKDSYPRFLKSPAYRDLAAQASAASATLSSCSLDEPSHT
Target sequence (P09471 whole entry, looked up): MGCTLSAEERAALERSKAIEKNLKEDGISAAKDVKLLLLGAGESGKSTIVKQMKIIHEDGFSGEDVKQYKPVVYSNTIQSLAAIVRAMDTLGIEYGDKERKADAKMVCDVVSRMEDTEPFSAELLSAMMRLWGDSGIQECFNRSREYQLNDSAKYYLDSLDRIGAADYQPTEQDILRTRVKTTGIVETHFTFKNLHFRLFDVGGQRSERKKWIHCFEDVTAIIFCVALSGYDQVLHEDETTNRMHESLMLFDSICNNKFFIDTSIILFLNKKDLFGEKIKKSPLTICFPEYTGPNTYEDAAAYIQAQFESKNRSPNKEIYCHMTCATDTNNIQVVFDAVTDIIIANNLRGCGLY
PKD1 inh – inhibitors of human PKD1 kinase, biochemical, fluorescence polarization | Serine/threonine-protein kinase D1 (Homo sapiens), Q15139 | inhibition, %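 (about 10 µM by stock and volumes)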 | 0.056% of 200,000 active | PKD1 kinase fluorescence polarization assay;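 active = inhibition of 50% or more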;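 also: controls were vehicle for no effect and a reference inhibitor for full effect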
INS promoter inh – inhibitors of insulin promoter-driven GFP, primary screen, imaging, TRM-6 cells (human fetal islet line), eGFP reporter, cell count | 0.9% of 130,000 active | AID 1273, 2008 | inhibition, % at 2 µM | reporter expression induced with tamoxifen;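 active = inhibition above the mean plus 3 SD, with well images judged a real hit on visual review, cut at about 60% in these data, passing the limit was not always enough; inconclusive = inhibition over the cutoff but images rejected on review; inactive = inhibition not above the cutoff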
INS promoter inh cell count – also measured in INS promoter inh; calls as there; normalized cell count, %; measured here: cell count, toxicity; reference of the scale not given here;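 cells exposed to compound for 48 h; stained nuclei by imaging scaled within each plate; lower means fewer cells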
HSV replic up primary fold – also measured in HSV replic up; calls as there; fold increase; compound at 10 µM; measured here: primary screen fold increase 10 uM; tested in PC3 cells;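 GFP signal in the first replicate; 1 = infected wells without compound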
Numbers without * were called inactive; i = inactive; ? = inconclusive; nt = no result given.

SMILES	HSV replic up	HSV replic up primary fold	GALR2 agonist	RGS16-Gao HTS	PKD1 inh	INS promoter inh	INS promoter inh cell count
Cc1c(NC(=O)CN2CCN(c3ccc([N+](=O)[O-])cc3)CC2)c(=O)n(-c2ccccc2)n1C	i	0.91	nt	103.5	-2.2	-7.1	107.5
C/C(=N\N=C(N)N)c1ccc(C)c(C)c1	i	1.05	nt	102.3	nt	nt	nt
COC(=O)c1ccccc1-n1cccc1C(=O)NP(=O)(N1CCOCC1)N1CCOCC1	i	0.82	nt	106.4	-1.5	35.0	106.5
COc1ccc(NC(=O)c2oc3ccccc3c2NC(=O)C2CCCO2)cc1OC (stereo not given)	i	0.95	nt	101.2	-0.7	nt	nt
CC(=O)Nc1ccc(Oc2ccc(NC(C)=O)c(NC(C)=O)c2)cc1	i	0.97	nt	99.9	-2.6	nt	nt
CCO[C@H]1OC(C(=O)NCc2ccccc2)=C[C@@H](c2coc3ccccc3c2=O)[C@@H]1CCCO	i	1.01	nt	102.2	11.5	nt	nt
CC1CN(c2ccc([N+](=O)[O-])c(NCCOc3ccccc3)c2)CCN1 (stereo not given)	i	0.82	nt	73.7	6.1	nt	nt
CCOC(=O)C1C(=O)NC(c2ccccc2)=NC1c1ccccc1 (stereo not given)	i	0.88	-0.1	100.3	-2.5	0.0	86.2
O=C(NCC1(c2ccccc2)CCCC1)c1ccco1	i	1.08	nt	97.1	-4.0	nt	nt
CN1C(=O)C(/C(N)=N/NC(=O)c2ccccc2)C2CC1(C)Oc1ccccc12 (stereo not given)	i	0.99	-3.1	96.3	-0.8	nt	nt
CN1CCN(CCCNC(=O)Nc2cccc3ccccc23)CC1	nt	nt	-0.6	119.4	-5.5	7.1	121.5
Cc1ccc(NC(=O)c2cc(S(=O)(=O)NCCC3=CCCCC3)ccc2F)cc1	i	0.91	-1.7	98.0	3.9	-26.7	90.0
COc1ccc2c(c1)CCC1=C2NC(=S)NC1c1ccc(N(C)C)cc1 (stereo not given)	i	0.93	nt	109.3	-0.8	nt	nt
Cc1nc(NS(=O)(=O)c2ccccc2)sc1NC(=O)OC(C)C	i	1.17	-1.7	99.5	-11.7	nt	nt
COc1cccc(/C=N/NC(=O)CCc2c(C)n[nH]c2C)c1	i	0.9	14.1*	105.2	2.2	-17.1	94.4
Cc1ccc(NC(=O)c2ccc([N+](=O)[O-])cc2)cc1S(=O)(=O)N(C)C	i	0.81	nt	102.7	3.7	-46.1	97.2
Cc1ccc(C(=O)Nc2ccccc2)cc1S(=O)(=O)Nc1ccc(Cl)cn1	i	1.03	nt	110.3	-0.1	-320.0	106.9
O=C(c1ccccc1)c1cnc2ccc(Cl)cc2c1N1CCOCC1	i	0.995	nt	100.8	-1.6	nt	nt
Cc1ccnc(N2CCC(C(=O)Nc3cccc(C(F)(F)F)c3)CC2)n1	i	0.87	-1.4	81.8	-1.8	nt	nt
O=C(OCC(=O)N1CCN(C(=O)c2ccco2)CC1)c1cc(-c2ccccc2)nc2ccccc12	i	0.83	-0.8	97.8	2.8	nt	nt
COc1ccc(NC(=S)Nc2ccccc2)cn1	i	1.06	0.6	98.4	-0.6	nt	nt
c1ccc(Cc2nn3c(Cn4nnc5ccccc54)nnc3s2)cc1	nt	nt	-0.1	95.0	4.1	nt	nt
CC/C(=N\NS(C)(=O)=O)c1ccccc1	i	1.17	-2.6	96.9	-1.4	8.3	94.9
O=C(C1=C(O)C(=O)N(c2nccs2)C1c1ccccc1)c1cc2ccccc2o1 (stereo not given)	?	nt	nt	92.7	nt	nt	nt
Cc1nn(C)c(C)c1S(=O)(=O)N(CC(=O)NC1CCCCCC1)c1ccc(C(C)C)cc1	i	0.89	-1.3	105.8	-6.2	nt	nt

Complete entries from above. Order of screens: HSV replic up, HSV replic up primary fold, GALR2 agonist, RGS16-Gao HTS, PKD1 inh, INS promoter inh, INS promoter inh cell count
`CCOC(=O)C1C(=O)NC(c2ccccc2)=NC1c1ccccc1` (stereo not given) as listed: i, 0.88, -0.1, 100.3, -2.5, 0.0, 86.2
`Cc1ccc(NC(=O)c2cc(S(=O)(=O)NCCC3=CCCCC3)ccc2F)cc1` as listed: i, 0.91, -1.7, 98.0, 3.9, -26.7, 90.0

Ordered by SMILES length (ascending): some entries from above
SMILES	HSV replic up	HSV replic up primary fold	GALR2 agonist	RGS16-Gao HTS	PKD1 inh	INS promoter inh	INS promoter inh cell count
CC(=O)Nc1ccc(Oc2ccc(NC(C)=O)c(NC(C)=O)c2)cc1	i	0.97	nt	99.9	-2.6	nt	nt
CC1CN(c2ccc([N+](=O)[O-])c(NCCOc3ccccc3)c2)CCN1 (stereo not given)	i	0.82	nt	73.7	6.1	nt	nt
COC(=O)c1ccccc1-n1cccc1C(=O)NP(=O)(N1CCOCC1)N1CCOCC1	i	0.82	nt	106.4	-1.5	35.0	106.5

Continued:
SMILES	HSV replic up	HSV replic up primary fold	GALR2 agonist	RGS16-Gao HTS	PKD1 inh	INS promoter inh	INS promoter inh cell count
O=C(Nc1cccc(S(=O)(=O)C(F)F)c1)c1ccc(Cl)c(S(=O)(=O)N2CCOCC2)c1	i	0.77	-0.4	103.8	-10.7	-34.8	95.5
COc1ccc(Cc2c(Cl)ncnc2Cl)cc1	i	0.89	-2.9	101.2	-10.1	27.0	107.5
CCc1c(C)nc2cc(-c3cc(OC)cc(OC)c3)nn2c1N1CCN(CCN2CCOCC2)CC1	i	0.93	0.2	111.5	5.1	-6.7	102.8
CCOC(=O)c1nnc(-c2ccccc2)nc1NCc1ccccc1	i	0.84	-1.1	99.5	-7.7	-60.0	108.4
CCCCN(Cc1cc2cc(OC)ccc2[nH]c1=O)C(=O)COc1ccccc1	i	0.92	1.8	nt	6.5	-20.5	167.8
CCn1c2ccccc2c2cc(NC(=O)CSc3nnc(-c4ccccc4OC)n3N)ccc21	i	0.95	-2.1	106.7	8.7	nt	nt
CCc1ccc(-c2nc(CN3CCC(C(=O)NCc4ccco4)CC3)c(C)o2)cc1	i	0.69	-1.6	100.9	-1.6	nt	nt
CC1(C)C(C#N)=C(N)Oc2c1c(=O)oc1ccccc21	i	0.98	nt	102.4	nt	nt	nt
COc1ccc(-c2oc(NC(=O)CSc3ncn[nH]3)c(C#N)c2-c2ccc(OC)cc2)cc1	i	0.69	-3.6	100.8	-0.2	54.3	128.0
Cc1ccc(CC(=O)Nc2ccccc2N2CCOCC2)cc1C	i	1.01	-3.6	94.2	5.3	-3.1	112.3
CC(CN1CCCC1)C(=O)NN (stereo not given)	i	1.03	nt	103.7	-3.2	nt	nt
CC1(C)CC(=O)C2=C(C1)Nc1nc(SCCN3CCOCC3)[nH]c(=O)c1C2c1cccs1 (stereo not given)	i	1.03	-1.1	76.4	1.0	-40.0	68.1
Cc1cccc(OCC(=O)NC2CCCc3ccccc32)c1C (stereo not given)	i	1.04	-1.8	99.6	-7.3	-67.6	86.3
Cc1cc2c(nn1)CCc1c-2no[n+]1[O-]	i	1.31	nt	107.7	nt	nt	nt
O=C(NCCc1c[nH]c2ccccc12)C(=O)NCC(c1ccco1)N1CCN(c2ccccc2)CC1 (stereo not given)	i	0.98	-0.7	112.0	-10.4	-3.5	84.2
OC1(CC#CCN2CCCCC2)c2ccccc2-c2ccccc21	i	1.01	nt	90.3	nt	nt	nt
O=C(Nc1ccc(OC(F)F)c(Cl)c1)Nc1ccc2c(c1)OCO2	i	0.72	0.0	113.2	0.5	i	79.4
CS(=O)(=O)N(CC(=O)Nc1ccccc1Sc1ccccc1)c1ccc(F)cc1	i	0.91	-3.1	104.4	-5.2	-34.5	87.6
CC(C)c1ccc(C2CC(=O)N3CN(C)CSC3=C2C#N)cc1 (stereo not given)	i	1.01	-3.1	97.1	12.4	nt	nt
Cc1cc(NS(=O)(=O)c2ccc(NC(=S)NC(=O)c3ccccc3)cc2)no1	i	1.08	0.0	1.2	-0.8	13.5	106.6
Cc1cc2oc(=O)cc(CN3CCCCC3C)c2c(C)c1Cl (stereo not given)	i	0.82	-2.9	89.4	2.1	nt	nt
COc1ccc(S(=O)(=O)n2cnc3cc(C)c(C)cc32)cc1C	i	0.97	-2.6	103.2	-3.5	nt	nt
CC(=O)c1sc(NC(=O)c2ccccc2F)nc1-c1ccccc1	i	0.95	nt	110.6	-6.8	27.3	133.3
CCc1sc(N(C(=O)Cc2ccccc2)c2ccc(F)cc2)nc1-c1ccccc1	i	0.93	-2.3	100.4	-2.8	-2.9	186.6
CCCCOC(=O)Nc1nc2ccccc2s1	i	0.93	-1.2	100.2	-11.8	-60.0	83.8

Continuation:
SMILES	HSV replic up	HSV replic up primary fold	GALR2 agonist	RGS16-Gao HTS	PKD1 inh	INS promoter inh	INS promoter inh cell count
Cc1nn(CC(=O)NCCN2CCOCC2)c(C)c1[N+](=O)[O-]	i	0.88	-2.2	101.7	5.4	33.3	99.0
COc1ccccc1OCc1nnc(SCC(=O)Nc2ccc(C)cc2)n1C	i	0.933	-0.1	97.5	-5.1	50.0	119.1
Cc1ccc2nc3c(cc(C#N)c(=O)n3CC3CCCO3)c(=O)n2c1 (stereo not given)	i	1	6.8*	96.8	-14.2	-15.6	132.6
CC(C)C(=O)Nc1ccc2c3c(cccc13)CC2	i	0.92	0.7	102.1	0.7	nt	nt
CCOC(=O)CSC1=NC(=O)/C(=C/c2ccc(OC)cc2)S1	i	0.99	-0.4	89.6	-9.9	-43.3	68.1
c1ccc(-c2nc3ccccn3c2NCc2ccc3c(c2)OCO3)cc1	i	1.05	-2.0	122.0	-0.8	-17.1	98.7
CC[n+]1c(/C=C2/C=C(C)CC(C)(C)C2)sc2ccc(OC)cc21	i	0.95	-2.7	284.1	1.6	30.8	114.3
COc1ccc(NC(=O)c2cc3cc(OC)ccc3oc2=N)cc1	i	0.91	-0.1	129.4	-1.9	-18.8	106.8
O=C(CSc1ncnc2ccccc12)N1CCN(c2ccccc2)CC1	nt	nt	-0.2	nt	-1.2	0.0	119.2
CC(=O)[C@@H]1[C@@H](C(=O)c2ccccc2)[C@]2(C(=O)Nc3ccccc32)[C@H]2C=Cc3cc(F)ccc3N12	i	0.98	-1.1	102.9	8.5	-13.3	128.6
CCNS(=O)(=O)c1ccc(NC(=O)c2ccccc2)cc1	i	0.92	-1.7	293.2	1.6	-28.6	125.3
COc1cc(C(=O)NC(=S)Nc2ccc(Cl)c(C(=O)O)c2)cc(OC)c1OC	i	1.05	-3.6	98.4	7.3	-19.2	108.0
CCCSc1nsc(NC(=O)C(c2ccccc2)c2ccccc2)n1	i	1.01	2.1	105.0	-8.5	-50.0	144.2
Cc1ccc2oc(-c3cccc(N)c3)nc2c1	i	0.97	nt	83.0	-0.5	nt	nt
CCOC(=O)c1nnn(-c2nonc2N)c1-c1ccc(F)cc1	i	0.93	nt	90.7	2.5	0.0	65.8
Cc1cc2oc(C(=O)Nc3ccc(S(N)(=O)=O)cc3)c(C)c2cc1Cl	i	0.83	nt	99.9	3.6	nt	nt
CCOC(=O)N1CCC(c2cc(=O)n3[nH]cc(C(=O)OC)c3n2)CC1	i	0.8	-1.4	142.6	-2.4	nt	nt
Cc1cc(C(F)(F)F)n2ncc(-c3ccc(F)cc3)c2n1	i	0.89	-0.5	104.8	0.4	11.4	155.1
CCOC(=O)N1CCN(C(=O)C2CCN(S(=O)(=O)N(CC)CC)CC2)CC1	i	1.02	-0.6	106.9	-15.6	nt	nt
O=C(CSc1nnc(-c2ccc(O)cc2)o1)N1CCOCC1	i	1.01	-1.5	130.7	-9.8	nt	nt
COc1ccccc1C(=O)NNC1CC(=O)N(c2ccc3c(c2)OCCO3)C1=O (stereo not given)	i	1	0.0	73.8	-7.2	7.9	119.2
COC(=O)c1nnn(CC(=O)Nc2cccc(OC)c2)c1C(=O)OC	i	1.03	1.2	89.1	-4.7	-6.9	110.7
COc1ccccc1S(=O)(=O)Cc1ccc(C(=O)NCc2ccc3c(c2)OCO3)o1	i	0.92	-4.3	107.9	2.2	nt	nt
COc1cc([N+](=O)[O-])cc(/C=N/NC(=O)Cn2nccc2C)c1O	i	1.05	nt	97.5	nt	nt	nt
CC(C)CC(=O)Nc1nc2c(c(=O)[nH]1)CCCC2	i	1.07	-2.3	60.8	-2.1	21.4	44.4
CC1CCN(CCCNC(=O)C2CCC(=O)N2C2CCCC2)CC1 (stereo not given)	i	0.84	-1.8	103.6	-3.8	31.2	94.4
O=C(N/N=C/c1ccccn1)c1ccc(NC(=O)c2cccc([N+](=O)[O-])c2)cc1	i	0.73	nt	101.4	-5.5	46.7	84.0
O=C(O)c1[nH]c2ccc(Cl)cc2c1CC(=O)N1CCN(C(=O)c2ccco2)CC1	i	0.9	-0.2	99.3	3.8	-178.6	83.0
